# Screening results from PubChem BioAssay.
# gsp antag = qHTS for Antagonists of gsp, the Etiologic Mutation Responsible for Fibrous Dysplasia/McCune-Albright Syndrome: qHTS; gsp-mutant cells, cAMP HTRF, 30 min; control for the full effect not named in the record; actives 0.4% (n = 340,000); Potency, µM (top dose mostly 76.9 µM), for the others: at the highest dose activity change, negative = inhibition, usual class: inhibitors; active = falling curve of any shape with a large fitted effect; inconclusive = falling curve, mostly with a smaller effect; inactive = flat or rising curve; cell line not stated here;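 note: intracellular cAMP measured with PDE inhibitor Ro 20-1724 present during compound exposure; potency is the fitted concentration of half-maximal effect; % is set by controls: 0 for no effect and ±100 for the full control effect; nearly all actives have a fitted effect of over 65% in size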
#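 HTRF cAMP read-out (cAMP-d2 plus anti-cAMP antibody-K in lysis buffer, 30 min RT). Before lysis, cells are exposed to compounds with […] for 30 min at 37C in DPBS containing Ca/Mg, BSA and Tween 20.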
# Sfp PPTase inh = qHTS Assay for Inhibitors of Bacillus subtilis Sfp phosphopantetheinyl transferase (PPTase); 4'-phosphopantetheinyl transferase ffp (Bacillus subtilis), Q9F4F7; Biochemical Sfp PPTase activity, qHTS; Potency, µM, for the others: max response, negative = inhibition, usual class: inhibitors; actives 3.5% (n = 310,000); active = well fitted inhibition curve with a large enough effect; inconclusive = small, poorly fitted or top-dose-only effect, or another doubt; inactive = no such curve, though single readings can be large or run the other way;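 note: the enzyme is Sfp with the accession as filed and its product quenches rhodamine fluorescence; potency is the fitted concentration of half-maximal effect; 0% = enzyme reaction without inhibitor and -100% = no enzyme wells; top concentration of the series not given in the record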
#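 Fluorescence-quenching assay with 15 nM Sfp, 5 uM rhodamine-CoA and 12.5 uM BHQ-2-labelled ybbR peptide in pH 7.6 Hepes/MgCl2 buffer. Enzyme was pre-incubated with compound for 15 min at room temperature. Rate was taken from the 30-min fluorescence change (525/598 nm).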
# ClpP mod = qHTS Assay for Activators of ClpP; ATP-dependent Clp protease proteolytic subunit (Bacillus subtilis (strain 168)), P80244; purified B. subtilis ClpP, FRET peptide cleavage, 20 min; Potency, µM (top dose mostly 57.5 µM), without a hit: at the top dose activity change, negative = active; actives 1.9% (n = 340,000); AID 651965, 2013; active = well fitted falling curve with a large enough effect; inconclusive = small, poorly fitted or top-dose-only effect; inactive = no such curve, though single readings can be large or run the other way; note: potency is the fitted concentration of half-maximal effect; the source files actives as falling curves though it sought activators and does not explain the sign; nearly all actives have a fitted effect of over 65% in size; many hits overshoot -100%
# Target sequence (P80244 whole entry, looked up): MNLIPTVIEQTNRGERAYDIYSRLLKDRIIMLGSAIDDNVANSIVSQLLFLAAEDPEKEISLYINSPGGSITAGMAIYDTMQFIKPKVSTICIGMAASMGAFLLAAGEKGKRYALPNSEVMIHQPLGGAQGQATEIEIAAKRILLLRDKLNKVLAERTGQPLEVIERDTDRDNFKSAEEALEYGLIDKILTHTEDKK
#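 FRET quenching reversal measured ClpP activation: 10 microg/mL B. subtilis ClpP at pH 8 with the FRET-FV decapeptide, read at 430 nm after 320 nm excitation. The 20-min minus 0-min signal was scaled between DMSO/no-enzyme wells and ADEP (5.8 microM final).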
# D2 ag = Beta-Arrestin HTS for Positive Allosteric Modulators of the Human D2 Dopamine Receptor: Agonists. D(2) dopamine receptor (Homo sapiens), P14416. DiscoveRx PathHunter D2 beta-arrestin, luminescence, 90 min; 100% = 57 uM dopamine signal. activation, % (concentration not given with the values). actives 0.084% (n = 360,000). AID 624465, 2012; in the data active = activation above about 40%; inconclusive = about 15% to 40%; inactive = below about 15%; note: compound concentration not given in the record; the text of the record calls up to 30% inactive
# Target sequence (P14416 whole entry, looked up): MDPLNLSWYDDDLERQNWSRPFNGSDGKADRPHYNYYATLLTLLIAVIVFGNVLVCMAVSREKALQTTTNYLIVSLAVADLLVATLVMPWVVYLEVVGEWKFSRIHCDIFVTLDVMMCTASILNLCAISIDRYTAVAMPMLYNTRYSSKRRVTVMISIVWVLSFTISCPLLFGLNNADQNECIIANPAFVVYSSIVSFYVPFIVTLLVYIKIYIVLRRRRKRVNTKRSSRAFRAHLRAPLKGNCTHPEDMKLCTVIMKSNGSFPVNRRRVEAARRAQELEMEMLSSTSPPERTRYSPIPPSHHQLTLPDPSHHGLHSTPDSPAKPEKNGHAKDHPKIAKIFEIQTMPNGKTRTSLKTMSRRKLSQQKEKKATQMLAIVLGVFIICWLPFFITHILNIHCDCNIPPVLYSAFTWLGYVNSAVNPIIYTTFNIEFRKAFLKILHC
#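 DiscoveRx PathHunter D2 beta-arrestin cells (2,100/well) attached overnight, then compound-stimulated 90 min at 37 C in HBSS/10 mM HEPES/0.1% Tween-20 buffer; beta-galactosidase complementation read by luminescence after 1 h at ambient temperature. Dopamine 57 uM final (EC100) as control.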
# Menin-MLL FL inh = qHTS Assay for Inhibitors Targeting the Menin-MLL Interaction in MLL Related Leukemias: Competition With Fluorescein Labeled MLL-derived Peptide; Fluorescence polarization, fluorescein-MLL peptide displacement from menin; FP activity change, % at 61.4 µM; 290,000 tested, under 10 active; inconclusive = falling polarisation curve, or a change in total fluorescence; inactive = total fluorescence flat and polarisation flat or rising; no compound was filed as active; the % refers to the polarisation; negative = inhibition;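 note: % of control where 0% means no effect; inhibitors lower the polarisation; unlabelled MLL peptide was the positive control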
# gsp agonist = qHTS for Agonist of gsp, the Etiologic Mutation Responsible for Fibrous Dysplasia/McCune-Albright Syndrome: qHTS; gsp mutant cells, cAMP HTRF, 30 min; control for the full effect not named in the record; Potency, µM (highest dose often 76.9 µM), inactives show at the top dose activation (cAMP increase), usual class: activators; actives 0.13% (n = 340,000); AID 624287, 2012; active = well fitted activation curve with a large enough effect; inconclusive = small, poorly fitted or top-dose-only effect, or another doubt; inactive = no such curve, though single readings can be large or run the other way; cell line not stated here;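 note: phosphodiesterase inhibitor Ro 20-1724 added with compounds to block cAMP breakdown; potency is the fitted concentration of half-maximal effect; nearly all actives have a fitted effect of over 60% in size; about a fifth of the inactives were tested at one dose only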
#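 Cells stably selected in G418 were plated at 2000/well, grown 16-24 hr, then given compounds in DMSO with the PDE inhibitor […] (300 uM solution added) for 30 min at 37C; cAMP was read by HTRF.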
# PINK1 modulator = A Quantitative High throughput Screen to Identify Chemical Modulators of PINK1 Expression; PINK1 immunofluorescence, high-content cytometry, 24 h; Potency, µM (titrated, usually from 76.6 µM), without a hit: top-dose activation (PINK1 increase), actives largely listed as activators; actives 0.2% (n = 410,000); active = well fitted activation curve with a large enough effect; inconclusive = small, poorly fitted or top-dose-only effect; inactive = flat fitted curve, though single readings scatter; cell line not stated here;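 note: potency is the fitted concentration of half-maximal effect; % of control where 0% means no effect; nearly all actives have a fitted effect of over 65% in size; a mitochondrial uncoupler was the plate control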
#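 Decision-based qHTS: stable cells, 24 h exposure to five compound concentrations, CCCP as control. Fixed cells stained for PINK1 plus nuclear, mitochondrial and cell markers, cytometer read.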
# * hit, by the source's call; ? = inconclusive; / = not tested or not shown; & = joins results of further samples; [ ] = dose if it differs, or a comment.
SMILES,gsp antag,Sfp PPTase inh,ClpP mod,D2 ag,Menin-MLL FL inh,gsp agonist,PINK1 modulator
O=C(NCc1cccs1)c1ccc(CS(=O)Cc2ccccc2Cl)o1 (centres undefined),15.0%,5.5%,0.3%,-4.2,/,?,0.2%
COc1ccc(OCC(=O)Nc2cc(S(=O)(=O)N3CCCC3)ccc2OCC(F)(F)F)cc1,3.8%,/,1.7%,0.8,/,-39.5%[inhibitor],9.2%
Cc1cccc(Nc2nnc(SCC(=O)Nc3cccc(S(=O)(=O)N4CCCCC4)c3)s2)c1,-19.7%,9.1%,-1.2%,-0.5,-2.2,?,3.1%
O=C(c1cccc(C(F)(F)F)c1)C1CCCN(Cc2cccn2-c2ccccn2)C1 (centres undefined),-15.8%,-7.5%,/,-4.5,3.1,9.5%[15.4 µM],13.6%
OC1=C(O)c2nc3cc(C(F)(F)F)ccc3nc21,1.1%,50.1µM*,/,2.0,-1.3,2.5%,1.0%
CCN1CCN(c2cc(C)c3cc(NC(=O)c4cccc(OC)c4)ccc3n2)CC1,-14.5%,-4.4%,-3.2%,1.8,3.5,-57.6%[inhibitor],5.2%
O=[N+]([O-])c1ccc(OCCCCN2CCCCC2)cc1,6.4%,17.9%,0.6%,-6.8,1.4,10.8%,1.5%
CC1=C(C(=O)Nc2ccccc2C(=O)NC2CCC(C)CC2)SCCO1 (centres undefined),6.6%,11.3%,-0.5%,-6.0,/,?,1.8%
COc1ccc(S(=O)(=O)N2CCN(CC(=O)Nc3cc(OC)cc(OC)c3)CC2)cc1,-10.2%,-0.4%,66.3%,-4.9,3.3,-9.4%,-1.7%
CCc1oc2ccccc2c1C(=O)c1cc(Br)c(O)c(Br)c1,-12.6%,-9.7%&-21.0%&-2.3%&7.4%,-7.6%,-5.5,/,/,1.4%
COc1ccc(C(=O)C2CCCN(C(=O)C3=CCCC3)C2)cc1OC (centres undefined),8.4%,-4.5%,-1.0%,-4.6,3.8,0.0%,0.5%
Cc1ccc(CNC(=O)CCc2cn(C)c3ccccc23)cc1,-2.3%,-1.9%,?,-5.5,3.5,-5.9%[15.4 µM],0.0%&-0.5%
O=c1cc(C2CCCCC2)[nH]c(=O)[nH]1,-10.8%,/,-1.4%,2.1,/,6.2%,2.8%
Cc1ccc2nc(SCC(=O)Nc3cccc(S(=O)(=O)NC4=NCCCCC4)c3)[nH]c2c1,?,4.5%,-1.5%,3.2,3.0,25.5%,1.4%
COc1cccc(N2CC(C(=O)Nc3ccc(F)cc3)CC2=O)c1 (centres undefined),-9.4%,11.6%,-1.3%,-7.0,/,?,3.8%
COc1ccc(S(=O)(=O)N2CCCCCC2)cc1NC(=O)Cc1n[nH]c(=O)c2ccccc12,-16.3%,/,-1.1%,-2.2,/,1.3%,2.7%
Cn1nc(-c2ccccc2F)c2cc(C(=O)Nc3ccc4c(c3)OCCO4)sc21,-26.1%,11.5%,?,0.0,1.7,-7.4%,1.5%
O=C(CC1C[C@H](C(=O)N2CCCCC2)[C@@]2(CCc3ccccc3)c3[nH]c4ccccc4c3CCN2C1=O)NCCC1=CCCCC1 (some centres undefined),-8.3%,/,-0.5%,-4.7,/,/,-0.8%
COc1ccc(-c2cc(C(=O)O)[nH]n2)cc1OC,9.2%,12.0%,-12.8%,-2.9,-2.6,-8.3%,3.1%
Cc1cc(OCc2nc3ccccc3s2)ccc1N,-4.3%,20µM*,/,-4.5,0.3,-6.9%[15.4 µM],-0.7%
COc1ccc(CC(=O)NC(C)C2COc3ccccc3O2)cc1OC (centres undefined),0.9%,22.3%,-5.4%,-0.8,0.6,-5.4%,-0.1%
CN(C)c1cccc(Oc2nc3c(c(=O)n(C)c(=O)n3C)n2C)c1,-14.3%,11.2%,0.1%,-5.9,3.2,-3.4%,3.4%
CN(C)C(=O)c1cn(CCC#N)nc1-c1ccc2ccccc2c1,-20.0%,12.2%,/,-1.8,-4.8,-90.1%[inhibitor],1.4%
O=S(=O)(Nc1ncccn1)c1ccc(NC(=S)NCc2ccco2)cc1,/,?,/,0.4,-2.7,11.8%[15.4 µM],1.2%
COC(=O)c1[nH]c2ccc(C)cc2c1NC(=O)CCN1CCN(Cc2ccc3c(c2)OCO3)CC1,-6.5%,11.1%,20µM*,-2.6,-0.1,-4.6%,?

# Carrying on:
SMILES,gsp antag,Sfp PPTase inh,ClpP mod,D2 ag,Menin-MLL FL inh,gsp agonist,PINK1 modulator
CCN(CC)C(=O)CSc1nc(N)c(-c2ccccc2)c(=O)[nH]1,6.9%,-9.9%,/,-1.2,-4.5,-18.3%[15.4 µM],1.9%
CCCCCCSc1cc(-c2nc3cc(C)ccn3c2NC2CCCCC2)ccc1OC,8.1%,/,4.7%,3.2,/,?,?
COc1cccc(OCC(O)CN2CCC(C)CC2)c1 (centres undefined),9.0%,?,-17.5%,-4.2,1.8,9.4%,-2.2%
O=[N+]([O-])c1ccccc1Oc1ccc(Cl)c2cccnc12,7.0%,?,1.3%,-0.6,-2.6,10.4%[15.4 µM],-0.3%
Cn1c(SCC(=O)NC2CCCC2)nnc1-c1ccco1,9.1%,4.6%,/,-6.0,-2.8,12.3%[15.4 µM],0.1%
C=CCn1c(SCC(=O)N(CCC)C2CCS(=O)(=O)C2)nnc1-c1ccccc1OC (centres undefined),11.0%,/,1.3%,0.7,/,2.1%,4.9%
COc1ccc(N2CCN(C(CNC(=O)C(=O)NCCC3=CCCCC3)c3ccco3)CC2)cc1 (centres undefined),7.1%,1.1%,-0.5%,-1.4,0.8,4.9%,-0.6%
COc1cc(Cl)c(C)cc1NC(=O)Cc1cccs1,-12.8%,-7.4%,0.9%,-3.6,-3.5,-1.7%[15.4 µM],0.2%
O=C(c1ccco1)N1N=C(c2ccccc2O)CC1c1cccs1 (centres undefined),/,/,0.6%,-1.0,/,-52.3%[inhibitor],-0.5%
CC1CN(C(=O)N[C@@H](Cc2ccccc2)C(=O)O)CC(C)O1 (some centres undefined),4.2%,10.4%,0.8%,-2.3,0.0,-17.9%,0.4%
CN(C)CCOC1c2ccccc2C=Cc2ccccc21,12.7%,/,/,-6.8,/,?,1.9%
Cc1ccc(C(=O)C[n+]2ccccc2)cc1,9.5%,8.1%,/,0.3,0.6,-6.7%[15.4 µM],-1.1%
COc1ccccc1CNC(=O)Cn1cc(Br)ccc1=O,7.4%,8.9%,/,-1.8,2.4,0.1%,-0.4%
CCOC(=O)N1CCN(C(=O)C2CCC(=O)N(Cc3cccc(C(F)(F)F)c3)C2)CC1 (centres undefined),-8.4%,16.0%,-1.4%,-5.1,/,20.6%,-0.7%
CCc1ccc(S(=O)(=O)Nc2ccncc2)cc1,4.5%,15.3%,0.4%,1.7,-1.0,-65.5%[inhibitor],-0.9%
Cc1onc(-c2c(Cl)cccc2Cl)c1C(=O)N1CCSCC1,1.8%,14.8%,/,1.4,5.1,?,0.5%
COc1ccccc1NC(=S)N(Cc1ccccc1)Cc1cccnc1,-3.6%,18.8%,/,1.7,1.2,12.7%[15.4 µM],-1.4%
Cc1ccc(S(=O)(=O)N2CC(=O)Nc3ccccc32)cc1,6.3%,-4.7%,-0.3%,-1.3,3.8,-17.5%,1.0%[38.3 µM]
Cc1ccc(C)c(Cn2nnc3c(=O)[nH]c(C4CCN(S(=O)(=O)c5ccc(S(=O)(=O)N(C)C)cc5)CC4)nc32)c1,?,7.6%,/,-4.4,0.2,-6.5%,2.3%
Cc1ccc(-c2cc(C(=O)Nc3cc(C)on3)no2)cc1,8.1%,25.2%,-0.2%,-2.0,0.8,-34.5%[inhibitor],1.6%
CCCn1nnc(NC(=S)NC(=O)/C=C/c2ccco2)n1,-10.7%,56.2µM*,/,-2.5,?,9.7%[15.4 µM],0.5%
CCCCNC(=O)Cn1nc(C)c(S(=O)(=O)N2CCOCC2)c1C,7.4%,/,0.8%,2.4,/,-37.0%,0.5%
COc1ccc(/C=C/C(=O)N2CCN(c3ccccc3)CC2)cc1S(=O)(=O)N1CCOCC1,/,10.7%,/,8.8,2.9,-12.0%[15.4 µM],1.9%
CC(NC(=O)c1ccccc1F)c1nnc(SCC(=O)NC2CCCCC2)n1C (centres undefined),2.5%,3.7%,/,-1.6,-0.5,-0.5%,-1.3%
COCCCNC(=O)c1cn(-c2cccc(OC)c2)c(=O)c2ccccc12,16.6%,11.2%,-15.8%,-1.6,28.2,7.2%,-1.9%

# Later entries.
SMILES,gsp antag,Sfp PPTase inh,ClpP mod,D2 ag,Menin-MLL FL inh,gsp agonist,PINK1 modulator
COc1cc2c(cc1OC)C(c1cc(Br)ccc1O)N(C(C)=O)CC2 (centres undefined),1.3%,/,-1.9%,-11.1,/,-9.3%[15.4 µM],0.9%
COc1ccc(C2Oc3cc(OC)cc(OC)c3CC2O)cc1 (centres undefined),/,-12.0%,/,/,-4.0,/,0.3%
NS(=O)(=O)c1ccc(NC(=O)COC(=O)c2cn(-c3ccccc3)nc2-c2ccccc2)cc1,-10.7%,15.7%,/,-2.2,3.3,-3.9%[15.4 µM],2.9%
C#CCOCCOCCOCCNc1nc(N2CCN(C(=O)Cn3cc(CCCCN)nn3)CC2)nc(N2CCN(C(=O)[C@H]([C@@H](C)CC)n3cc(CCCCN)nn3)CC2)n1,5.1%,/,1.8%,-0.6,/,/,3.3%
O=C(C1=NN[C@@H]2C(=O)N(c3ccccc3C(F)(F)F)C(=O)[C@H]12)C(c1ccccc1)c1ccccc1,-20.4%,2.3%,0.6%,-4.7,2.1,15.7%,0.1%
CCN(c1cccc(C)c1)S(=O)(=O)c1ccc(-c2cc(C)no2)s1,7.1%,1.5%,2.8%,0.6,/,?,9.2%
COc1ccc(NC(=O)c2ccccc2Oc2ccccc2)c(OC)c1,-6.4%,-10.9%,-5.1%,-3.4,5.8,-2.2%,4.4%
CCCCn1c(N)c(N(CC(C)C)C(=O)c2cccc(S(=O)(=O)N(CC)c3ccccc3)c2)c(=O)[nH]c1=O,-2.0%,/,-27.7%,7.7,/,3.5%,0.5%
